Screens from PubChem.
LYPLA1 inh = blocks human lysophospholipase 1, a PME1 counter-screen; recombinant LYPLA1, FP-Rh probe fluorescence polarization; inhibition, % at 5.9 µM; hit rate 0.16% among 320,000; AID 2174;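 active = inhibition above the mean of all tested compounds plus 3 SD, set per campaign, cut at about 14% in these data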;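 note: inhibitors block serine hydrolase probe labeling of LYPLA1 so polarization falls; 0% = enzyme with DMSO and 100% = wells lacking LYPLA1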
Target sequence (O75608 whole entry, looked up): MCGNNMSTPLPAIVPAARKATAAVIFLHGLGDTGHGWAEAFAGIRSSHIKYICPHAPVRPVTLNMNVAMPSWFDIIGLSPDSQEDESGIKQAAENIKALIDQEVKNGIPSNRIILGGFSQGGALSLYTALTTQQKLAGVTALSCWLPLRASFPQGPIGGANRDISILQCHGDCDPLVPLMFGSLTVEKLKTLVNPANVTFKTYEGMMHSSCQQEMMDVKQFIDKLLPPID
PME-1 inh = blocks human protein phosphatase methylesterase 1. recombinant PME-1, FP-Rh probe fluorescence polarization. Q9Y570. inhibition, % at 5.9 µM. hit rate 0.53% among 320,000;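 active = inhibition above the campaign mean of all compounds plus 3 SD, cut at about 26% in these data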;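 note: competitive labeling of PME-1 active site by serine hydrolase directed probe; 0% = PME-1 with DMSO and 100% = wells lacking PME-1 enzyme; inhibitors block probe labeling so polarization falls and inhibition rises; many of its hits are not listed in these tables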
PAFAH2 FP inh = PAFAH2 (human) inhibition. AID 492956. hit rate 0.99% among 340,000. Q99487. recombinant PAFAH2, FP-rhodamine activity probe, fluorescence polarization. inhibition, % at 3.39 µM;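 active = inhibition above the mean over all tested compounds plus 3 SD, cut at about 30% in these data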;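 note: inhibitors block probe labeling of enzyme so polarization drops; 0% = enzyme with DMSO and 100% = wells lacking PAFAH2 protein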
pPAFAH FP inh = inhibitors of human plasma PAF acetylhydrolase (pPAFAH); recombinant pPAFAH, FP-rhodamine probe fluorescence polarization; Q13093; hit rate 1.5% among 330,000; AID 463082; inhibition, % at 3.39 µM;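 active = inhibition above the mean inhibition across the screen plus 3 SD, cut at about 25% in these data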;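 note: inhibitors block binding of the rhodamine activity-based probe so polarization drops; 0% = enzyme with DMSO and 100% = wells lacking pPAFAH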
Target sequence (Q13093 whole entry, looked up): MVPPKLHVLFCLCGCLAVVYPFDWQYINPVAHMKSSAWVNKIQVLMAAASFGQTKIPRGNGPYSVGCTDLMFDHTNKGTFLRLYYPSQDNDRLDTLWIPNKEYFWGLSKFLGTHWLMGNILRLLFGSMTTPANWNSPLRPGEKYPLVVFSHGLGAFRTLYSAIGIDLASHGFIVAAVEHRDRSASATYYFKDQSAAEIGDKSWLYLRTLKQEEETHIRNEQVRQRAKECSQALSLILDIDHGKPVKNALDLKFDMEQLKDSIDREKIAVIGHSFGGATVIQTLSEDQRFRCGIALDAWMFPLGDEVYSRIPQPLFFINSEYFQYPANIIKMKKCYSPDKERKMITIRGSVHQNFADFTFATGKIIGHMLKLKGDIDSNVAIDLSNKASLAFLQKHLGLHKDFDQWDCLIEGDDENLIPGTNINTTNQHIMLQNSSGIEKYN
PAFAH1B2 FP inh = PAFAH1B2 (human) inhibition | recombinant PAFAH1B2, FP-rhodamine activity probe, fluorescence polarization | inhibition, % at 3.39 µM | hit rate 1.2% among 340,000;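 active = inhibition above the mean of all tested compounds plus 3 SD, cut at about 24% in these data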;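 note: 0% = enzyme with DMSO and 100% = wells lacking PAFAH1B2; many of its hits are not listed in these tables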
PAD4 inh = blocks human protein arginine deiminase 4 | inhibition, % at 6.36 µM | recombinant PAD4, RCA probe fluorescence polarization | AID 485272 | hit rate 0.41% among 330,000;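 active = percent inhibition above a cutoff equal to the mean of all tested compounds plus 3 SD, cut at about 15% in these data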;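 note: 0% = PAD4 with RCA probe and DMSO and 100% = probe without PAD4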
Fam108B counter = Fam108B inhibition, counter-screen for RBBP9 inhibitors; inhibition, % at 9.51 µM; hit rate 0.33% among 300,000; recombinant Fam108B, FP-Rh probe fluorescence polarization;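 active = inhibition above the screen mean inhibition plus 3 SD, computed separately per campaign, cut at about 18% in these data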;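 note: inhibitors lower polarization as less probe binds the enzyme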
PAFAH1B3 inh = inhibitors of human PAFAH1B3 | recombinant PAFAH1B3, FP-rhodamine probe, fluorescence polarization | inhibition, % at 3.39 µM | hit rate 0.28% among 340,000;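 active = inhibition above the screen-wide average of all tested compounds plus 3 SD, cut at about 25% in these data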;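 note: 0% = enzyme with DMSO only and 100% = wells lacking PAFAH1B3 protein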
* marks the source's active call; other numbers are inactive results; nt = not tested or not shown. This is a subset, so the mix of outcomes need not match the whole.

SMILES | LYPLA1 inh | PME-1 inh | PAFAH2 FP inh | pPAFAH FP inh | PAFAH1B2 FP inh | PAD4 inh | Fam108B counter | PAFAH1B3 inh
CCOC(=O)C1=C(C)NC2(O)c3ccccc3C(=O)C12O (configuration not stated) | 0 | -4 | 8 | -2 | 4 | -3 | 3 | 11
CNC(=O)COC(=O)c1ccc2c(c1)NC(=O)C1CCCN21 (configuration not stated) | 4 | -3 | nt | 2 | nt | -4 | -1 | nt
COc1ccc(C(=O)N/N=C/C(C)c2ccccc2)cc1OC (configuration not stated) | -2 | 2 | 2 | 3 | 3 | 3 | 2 | 0
CC(c1ccc(O)cc1)(c1ccc(O)cc1)c1ccc(CCBr)cc1 | -4 | -8 | 5 | -5 | 4 | -2 | -3 | 7
Cc1cc(=O)n(-c2ccc3ccccc3n2)[nH]1 | -3 | -1 | 3 | -7 | 7 | -5 | -2 | 14
CCc1nn(CC(=O)NCc2ccccc2Cl)c(=O)c2cccn12 | 1 | 3 | -1 | 2 | 10 | 0 | 0 | 10
CC(C)(C)c1cc(NC(=O)CCl)n(-c2ccccc2)n1 | 1 | -2 | -5 | 1 | 3 | 1 | 1 | 2
C=CCn1c(=NC(=O)c2cccc(N3C(=O)CCC3=O)c2)sc2cccc(OC)c21 | -10 | -5 | 1 | 3 | 0 | 0 | 1 | 6
Cc1cc(C(=O)c2ccccc2)c(NC(=O)CCl)s1 | -2 | -6 | -2 | 11 | -1 | 0 | -6 | 7
CC(=O)Nc1cc(S(=O)(=O)C(F)(F)F)ccc1Cl | 1 | 4 | 9 | -4 | 10 | -2 | 2 | 8
COC(=O)c1ccc2c(=O)[nH]c(CSc3nc(C)cs3)nc2c1 | -1 | -6 | 2 | -3 | 0 | -5 | -1 | -3
Cc1ccc(C(=O)/C=C2\NCC(C)NC2=O)cc1 (configuration not stated) | -1 | -2 | 6 | 2 | -1 | 3 | -1 | 8
COc1cc(C=Nc2cccc([N+](=O)[O-])c2C)ccc1OC(C)=O | 3 | 0 | -8 | 4 | 1 | -1 | 0 | 2
O=C(Cn1nc(Cl)nc1Cl)c1ccc2c(c1)OCCO2 | 2 | 0 | 5 | 3 | 6 | 2 | 2 | 7
O=C(Nc1ccccc1)OCN1C(=O)c2ccccc2C1=O | -3 | 8 | 10 | 1 | -1 | 1 | 1 | 7
CCN(CC)c1ccc(C(=O)NNC(=O)CCl)cc1 | 0 | 1 | 8 | 4 | 2 | -3 | -1 | -3
COc1ccc(NC(=O)CSc2nnc(Cc3ccc(C)cc3)c(=O)n2N)cc1 | 1 | -5 | -2 | -3 | -3 | 3 | 1 | 4
O=C(NCc1ccco1)c1ccc2ccccc2n1 | 0 | -4 | -1 | 0 | 1 | -3 | 1 | 5
COc1ccc(-n2cnnc2SCC(=O)c2ccc(S(=O)(=O)N3CCOCC3)cc2)cc1 | 0 | 7 | -1 | -2 | 0 | 3 | -1 | 5
O=C(COC(=O)/C=C/c1cccs1)Nc1nc(-c2ccccc2)cs1 | 1 | 2 | 5 | 6 | -1 | -1 | -6 | 9
COc1ccc2c(c1)CCCC21NC(=O)NC1=O (configuration not stated) | 1 | 3 | 5 | 3 | -1 | -2 | 1 | 8
Cc1cc(C(=O)N/N=C/c2ccc([N+](=O)[O-])s2)c2ccccc2n1 | 2 | 8 | 8 | 7 | 4 | -5 | 4 | 13
Cc1cc(-n2nnc3ccccc32)nc2ccccc12 | -3 | -2 | 1 | 7 | 5 | -5 | -7 | 10
N#C/C(=C(/O)CCl)c1nnc2n1CCCCC2 | -2 | 7 | 5 | 1 | 2 | -2 | 1 | 0
O=C(CCl)NCc1c(Cl)cccc1-n1cccc1 | 2 | 2 | 1 | 3 | 5 | 4 | -4 | 0
CCCCOC(=O)c1ccc(NS(=O)(=O)c2cc(-c3nnnn3CC)ccc2OC)cc1 | -2 | 5 | 0 | 28* | 6 | -2 | -4 | 9
CC(=O)Nc1ccc(C(=O)OCC(=O)c2ccc(S(=O)(=O)N3CCCCC3)cc2)cc1 | -24 | -16 | -1 | -10 | -4 | -5 | -12 | -4
COc1cc2c(cc1OC)C(C)N(S(=O)(=O)c1cn(C)cn1)CC2 (configuration not stated) | -2 | -2 | nt | -1 | nt | 8 | 1 | nt
CCOC(=O)CCC(=O)OCC(=O)NC(C)C1CC2CCC1C2 (configuration not stated) | -2 | 0 | 0 | 2 | 10 | -4 | 3 | 10
O=C(OCN1C(=O)c2ccccc2C1=O)/C(=C\c1ccco1)NC(=O)c1ccccc1 | 3 | 7 | 1 | 14 | 1 | -1 | 2 | 3
Cc1cc(NS(=O)(=O)c2ccc(NC(=O)CSc3nc4ncc(Br)cc4[nH]3)cc2)nc(C)n1 | -6 | -23 | 1 | -9 | 3 | 1 | 0 | 7
CC(C)(C)c1ccc(CNC(=O)c2ccc3c(c2)NC(=O)CO3)cc1 | -4 | -4 | -3 | -5 | 4 | -3 | -3 | 2

Some of the entries above, reformatted.
SMILES	LYPLA1 inh	PME-1 inh	PAFAH2 FP inh	pPAFAH FP inh	PAFAH1B2 FP inh	PAD4 inh	Fam108B counter	PAFAH1B3 inh
COc1ccc2c(c1)CCCC21NC(=O)NC1=O (configuration not stated)	1	3	5	3	-1	-2	1	8
Cc1cc(C(=O)N/N=C/c2ccc([N+](=O)[O-])s2)c2ccccc2n1	2	8	8	7	4	-5	4	13
Cc1cc(-n2nnc3ccccc32)nc2ccccc12	-3	-2	1	7	5	-5	-7	10
N#C/C(=C(/O)CCl)c1nnc2n1CCCCC2	-2	7	5	1	2	-2	1	0
O=C(CCl)NCc1c(Cl)cccc1-n1cccc1	2	2	1	3	5	4	-4	0
CCCCOC(=O)c1ccc(NS(=O)(=O)c2cc(-c3nnnn3CC)ccc2OC)cc1	-2	5	0	28*	6	-2	-4	9
CC(=O)Nc1ccc(C(=O)OCC(=O)c2ccc(S(=O)(=O)N3CCCCC3)cc2)cc1	-24	-16	-1	-10	-4	-5	-12	-4
COc1cc2c(cc1OC)C(C)N(S(=O)(=O)c1cn(C)cn1)CC2 (configuration not stated)	-2	-2	nt	-1	nt	8	1	nt
CCOC(=O)CCC(=O)OCC(=O)NC(C)C1CC2CCC1C2 (configuration not stated)	-2	0	0	2	10	-4	3	10
O=C(OCN1C(=O)c2ccccc2C1=O)/C(=C\c1ccco1)NC(=O)c1ccccc1	3	7	1	14	1	-1	2	3
Cc1cc(NS(=O)(=O)c2ccc(NC(=O)CSc3nc4ncc(Br)cc4[nH]3)cc2)nc(C)n1	-6	-23	1	-9	3	1	0	7
CC(C)(C)c1ccc(CNC(=O)c2ccc3c(c2)NC(=O)CO3)cc1	-4	-4	-3	-5	4	-3	-3	2
